Sa growth inh = blocks Staphylococcus aureus growth; S. aureus RN4220 growth, OD600, 20 h, 42 °C; active compounds read low; 170,000 tested, 0.53% active; relative growth, % (concentration not given with the values); AID 720641;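 active = growth at 42 °C up to 50% and 20 or more points under that at 30 °C, or under 10% at both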;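 also: 300 nL library stock went into each well; scaled to the means of positive and negative controls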
GIV-Gai inh = inhibitors of GIV GBA-motif binding to rat Galpha-i3; Galpha-i3/FITC-GIV peptide fluorescence polarization, 90 min; active compounds read low; scaled: aluminum fluoride 0%, vehicle 100%; 210,000 tested, 0.42% active; AID 1224905; percent of control (FP), % (test concentration not listed);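 active = replicate mean at 85% of control or lower, very high polarization wells dropped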;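 also: lower values mean more displacement of the GIV peptide from Galpha-i3; wells of about 15 µL received 100 nL stock; the first replicate is given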
Target sequence (P08753 whole entry, looked up): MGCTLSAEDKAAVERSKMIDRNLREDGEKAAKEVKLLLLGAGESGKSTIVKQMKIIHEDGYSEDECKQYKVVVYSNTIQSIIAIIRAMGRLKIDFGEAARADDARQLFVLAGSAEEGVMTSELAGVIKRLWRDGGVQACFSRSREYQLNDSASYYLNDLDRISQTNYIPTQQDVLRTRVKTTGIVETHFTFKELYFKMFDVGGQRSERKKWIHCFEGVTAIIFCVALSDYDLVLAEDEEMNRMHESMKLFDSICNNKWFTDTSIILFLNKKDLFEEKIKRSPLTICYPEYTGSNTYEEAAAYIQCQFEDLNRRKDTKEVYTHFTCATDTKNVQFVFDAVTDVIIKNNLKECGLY
HCMV UL50-53 inh = cytomegalovirus nuclear egress complex inhibition; AID 1918969; 190,000 tested, 0.15% active; inhibition, % (concentration not given with the values); HTRF UL50-UL53 interaction, normalized percent inhibition;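 active = both replicates at 50% or more, plus weaker picks with an unusually low signal ratio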;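 also: stock transfer was 100 nL into about 20 µL; 0% = negative control wells and 100% = wells with untagged competitor protein; inactives centre near -12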
Sa growth inh second temp = further read-out of Sa growth inh, marked with its call; relative growth, %; measured here: growth at 30 °C;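 optical density after 20 h as mean of two plates; 100% = untreated growth and lower means inhibition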
The depositor's hits bear a star; / = no result given; & = joins results of further samples.

Preview:
Structure	Sa growth inh	Sa growth inh second temp	GIV-Gai inh	HCMV UL50-53 inh
Cc1cccc(OCc2nc(C)c(C(=O)Nc3ccccc3)s2)c1	/	/	104.0	-7.9
Cc1cc(=O)c2cccc(C)c2[nH]1	89.7	84.5	97.8	-16.1
C=CCN1C(=O)/C(=C\c2cccc(OC(=O)c3ccco3)c2)SC1=S	103.0	89.4	104.4	9.3
CCCS(=O)(=O)N1CC(=O)N(c2cc(C)cc(C)c2)C(C)(C(=O)NC2CCCCCC2)C1 (configuration not stated)	104.3	87.0	106.3	/
O=C(Nc1ccccc1C(=O)OCc1cc(=O)n2nc(C3CC3)sc2n1)c1cccc(Cl)c1	78.7	87.6	106.6	/

Main list, previewed entries included:
Structure	Sa growth inh	Sa growth inh second temp	GIV-Gai inh	HCMV UL50-53 inh
Cc1cccc(OCc2nc(C)c(C(=O)Nc3ccccc3)s2)c1	/	/	104.0	-7.9
Cc1cc(=O)c2cccc(C)c2[nH]1	89.7	84.5	97.8	-16.1
C=CCN1C(=O)/C(=C\c2cccc(OC(=O)c3ccco3)c2)SC1=S	103.0	89.4	104.4	9.3
CCCS(=O)(=O)N1CC(=O)N(c2cc(C)cc(C)c2)C(C)(C(=O)NC2CCCCCC2)C1 (configuration not stated)	104.3	87.0	106.3	/
O=C(Nc1ccccc1C(=O)OCc1cc(=O)n2nc(C3CC3)sc2n1)c1cccc(Cl)c1	78.7	87.6	106.6	/
Cc1ccc(NC(=O)C(Cc2c[nH]c3ccccc23)NC(=O)OCC(C)C)cc1 (configuration not stated)	117.8	82.0	103.2	-19.3
COc1ccccc1/C=C/c1nc(C#N)c(NCCc2ccccc2)o1	114.5	85.4	105.0	-31.8
CCOC(=O)c1sc(SCc2ccccc2)c(S(=O)(=O)C(C)C)c1N	111.8	85.1	103.1	0.3
Cc1ccc(NC(=O)C2CCCN(c3nc4ccccc4s3)C2)c(C)c1 (configuration not stated)	93.0	90.2	94.2	-26.1
O=C(COc1ccc2oc3c(c2c1)CCCC3)Nc1ccc(Br)cc1	106.7	86.6	102.8	-19.4
COc1ccccc1CNc1nc(-c2ccco2)nn1C(=O)c1cc(OC)c(OC)c(OC)c1	109.6	66.0	105.0	-7.7
COc1ccccc1-c1cc(C(=O)Nc2cc(OC)c(OC)c(OC)c2)no1	115.0	90.9	109.8	-2.1
Cc1c(-c2nnc(C(=O)NCCc3ccc(Cl)cc3)o2)oc2ccccc12	/	/	102.3	3.9
N#Cc1c(N)cc(N)[nH]c1=S	78.4	75.6	/	-28.2
CCC(=O)O[C@]1(C(=O)CCl)[C@@H](C)CC2C3CCC4=CC(=O)C=C[C@]4(C)[C@@]3(F)[C@@H](O)C[C@@]21C (some centres not stated)	94.2	86.8	/	-36.2
Cc1nn(C)c2c1c(-c1ccccc1)cc(=O)n2C(C)C(=O)NCCc1ccc(Cl)cc1 (configuration not stated)	102.0	65.1	104.2	/
CCOCCCn1c(=N)c(C(=O)NCc2ccccc2)cc2c(=O)n3ccccc3nc21	92.4	83.6	107.4	-111.7
O=C(NCCN1CCOCC1)c1cnc2sc3c(n2c1=O)CCC3	/	/	98.4	-22.8
Cn1nc(C(=O)NCCc2ccsc2)c2c1-c1ccccc1SC2	108.9	93.4	103.9	/
COc1ccc(-c2cccc(NS(=O)(=O)c3ccc(C)s3)c2)nn1	109.7	90.5	102.7	/
COc1cc(NC(=O)CSc2nc3nc(C)c(Cc4ccc(C)cc4)c(C)n3n2)cc(OC)c1	124.0	100.8	105.5	/
CC(=O)Nc1ccc(NC(=O)C(NC(=O)C2CCC(C)CC2)C(C)C)cc1 (configuration not stated)	92.8	95.6	108.0	3.9
CCCn1c(N)c(C(=O)CSc2nnc(-c3ccccc3)o2)c(=O)[nH]c1=O	91.8	91.0	/	-26.3
Cc1cc2c3c([nH]c2cc1S(=O)(=O)NCc1ccco1)CC(C)(C)CC3=O	105.3	84.5	96.3	-14.3
O=S(=O)(/N=C(/Nc1cc(N2CCOCC2)ncn1)c1ccccc1)c1ccccc1	89.0	81.1	101.4	/
Cc1nc(-c2ccccc2Cl)cs1	108.6	83.0	98.9	-14.7
CC(=O)Oc1ccc(C(=O)Nc2cc(-c3nc4ccccc4[nH]3)ccc2C)cc1	85.8	89.9	106.3	-19.7
CC(C)NC(=O)c1ccc(S(=O)(=O)N2CCCCCC2)cc1	121.4	97.7	/	13.1
CC1(C)CC(=O)OC(c2ccccc2)(c2ccccc2)C1	92.0	101.1	/	4.7
COc1ccc(-c2ccc(NS(=O)(=O)c3ccc(F)c(C(F)(F)F)c3)cc2)nn1	115.2	94.3	107.7	/
CCOC(=O)C1=CN(c2ccc(C)cc2)C=C(C(=O)OCC)C1c1cc(Br)ccc1OC	/	/	107.3	-15.8
O=C(O)c1cn(-c2ccc(F)cc2)c(=O)c2ccccc12	/	/	103.2&98.4	9.3&-23.9
COC(=O)c1sc2nc3c(c(C(F)(F)F)c2c1N)CN(C(C)=O)CC3	101.7	95.7	102.2	-113.3
Cc1cc(C)cc(NC(=O)C2Nc3cc(F)ccc3S(=O)(=O)N2)c1 (configuration not stated)	/	/	104.9	-22.4
CC(=O)N1CC(=O)N=C1SCC(=O)Nc1nc2c(s1)CCCC2	45.1	37.7	/	-44.0
O=C(O)CCn1ccccc1=O	112.2	78.2	100.2	-7.4
Cc1cc2n(n1)C(c1cc(C(C)(C)C)c(O)cc1O)Nc1ccccc1-2 (configuration not stated)	104.6	97.1	96.5	15.2
COc1ccc(NC(=O)CS(=O)CC(=O)Nc2ccc(NC(C)=O)cc2)cc1 (configuration not stated)	117.1	97.5	102.2	-4.5
Cc1cc(NC(=O)c2cccc(Oc3ccccc3)c2)n[nH]1	85.7	63.5	/	2.4
COc1cc2cc(C#N)c(SCC(=O)OC(C)C)nc2cc1OC	112.1	86.3	103.7	0.8
CCN(CCCNC(=O)CCC1=NS(=O)(=O)c2ccccc2N1)c1ccccc1	/	/	106.0	-5.7
Cc1ccccc1CNS(=O)(=O)c1csc(C(N)=O)c1	115.4	101.4	104.0	/
Cc1cc2oc(=O)cc(CN3CCCC(C)C3)c2cc1C(C)C (configuration not stated)	98.9	95.2	/	-13.0
O=C1CNC(=S)N1CCC1=CCCCC1	88.6	78.8	105.4	-30.6
O=C(CN1C(=O)c2ccccc2C1=O)NC1CCCCC1	109.5	100.2	107.0	-21.3
CCOC(=O)/C(C#N)=C\N1CCOCC1	85.3	99.6	98.9	-26.9
CCCN1C(=O)/C(=c2\sc3n(c2=O)C(c2ccccc2)C(C(=O)OC)=C(C)N=3)c2ccccc21 (configuration not stated)	111.2	85.9	105.8	-48.7
Cc1ccc(-n2ccnc(SCC(=O)NCc3ccco3)c2=O)cc1C	107.4	88.1	102.6	-90.0
COc1cccc2c1NC1CC(C)CCC1C2(C)C (configuration not stated)	79.4	94.9	103.2	/
COc1cc(OC)cc(C(=O)Nc2nc(-c3nnn(-c4ccc(C)cc4)c3C)ns2)c1	91.6	87.8	109.4	/

The list continues:
Structure	Sa growth inh	Sa growth inh second temp	GIV-Gai inh	HCMV UL50-53 inh
[O-]/[N+](=C/c1ccco1)c1ccccc1	83.6	56.9	108.3	-8.2
COc1cc(OC)c(NC(=O)Cn2nc(C)n3cccc3c2=O)cc1Cl	113.6	93.0	105.9	-19.3
COc1ccc(-c2cnc(N)n2CC2CCCO2)cc1 (configuration not stated)	91.4	24.7	102.2	1.6
CC(=O)O/N=C(\C)c1nccs1	87.4	72.6	107.9	-33.3
C=CCSc1nc2c(c(=O)[nH]1)CCCC2	/	/	97.2	-16.1
CC(C)NC(=O)CSc1n[nH]c(-c2ccncc2)n1	102.8	92.6	/	-2.6
Cc1ccc(-n2nc3c(N4CCC(C(=O)NCc5ccccn5)CC4)nnc(C)c3c2C)cc1	/	/	131.4	-9.2
O=C(Nc1cccs1)Nc1cc(C(F)(F)F)ccc1Cl	102.1	88.1	105.0	-13.9
CCN(CC)C(=O)Cn1c(=O)cc(C)c2c(C)nn(C)c21	104.6	93.7	107.0	/
Cc1oc2ccc(O)c(CN3CCCCC3C)c2c1C(=O)Nc1ccccc1 (configuration not stated)	94.7	89.7	105.5	-21.8
COc1cccc(NC(=O)c2ccc(-c3nc(COc4ccccc4)c(C)o3)cc2)c1	131.4	94.4	103.6	/
CCOC(=O)N1CCC(NS(=O)(=O)c2ccc3[nH]c4c(c3c2)CCCC4)CC1	80.5	80.8	95.7	/
O=C(CN1C(=O)COc2ccc(S(=O)(=O)N3CCOCC3)cc21)Nc1ccc(F)c(Cl)c1	100.0	68.8	108.9	/
COc1ccc(CNC(=O)Cc2c(C)c3c(cc(C)c4c(C)c(C)oc43)oc2=O)cc1	106.2	92.3	103.3	-15.1
COc1cc(C(=O)NC2CCCNC2)cc(OC)c1OC (configuration not stated)	99.6	93.0	/	-20.4&-28.1
Cc1nc2sc(C(=O)c3ccccc3)c(N)c2c(C)c1C(=O)Nc1ccccc1	/	/	100.8	-31.1
CN(C)c1ccc(C2C3=C(CCCC3=O)Nc3[nH]c(=O)[nH]c(=O)c32)cc1 (configuration not stated)	84.9	86.7	/	-32.1
O=C(Nc1ccccc1-c1nc2ccccc2[nH]1)c1ccccc1Br	/	/	101.9	-3.6
O=C(c1nc(-c2ccccc2)n(-c2ccc(F)cc2)n1)N1CCOCC1	/	/	104.3	-12.9
COc1cc(C(=O)NC2CCS(=O)(=O)C2)cc(OC)c1OC (configuration not stated)	99.4	109.4	97.0	-2.1
Cc1cccc(NS(=O)(=O)c2ccc(NC(=O)N3CCCC3)cc2)c1	99.3	89.9	104.4	/
NC(=O)CSc1nc2c(c(C(F)(F)F)n1)CCc1ccccc1-2	114.1	79.4	104.0	/
CC(=O)Nc1ccc(Oc2cccnc2)nc1	122.7	87.1	108.8	1.7
O=C(O)c1cc(N2CCOCC2)ccc1NS(=O)(=O)c1ccc(Br)cc1	/	/	98.8	-29.7
O=C1C(=Cc2ccc(F)cc2)C(=O)c2ccccc21	102.2	80.8	97.8	-11.9

Compound profiles, from the list above:
COc1cc(C(=O)NC2CCS(=O)(=O)C2)cc(OC)c1OC (configuration not stated) in the list: Sa growth inh = 99.4; Sa growth inh second temp = 109.4; GIV-Gai inh = 97.0; HCMV UL50-53 inh = -2.1
O=C(Nc1cccs1)Nc1cc(C(F)(F)F)ccc1Cl in the list: Sa growth inh = 102.1; Sa growth inh second temp = 88.1; GIV-Gai inh = 105.0; HCMV UL50-53 inh = -13.9

(next part)
Structure	Sa growth inh	Sa growth inh second temp	GIV-Gai inh	HCMV UL50-53 inh
Cc1ccc(NC(=O)c2cc(C)nn2-c2ccccc2)cc1	75.4	98.4	112.1	-9.0
FC(F)(F)c1nc2cc3c(cc2n1Cc1ccc(Br)cc1)OCCO3	/	/	97.7	7.8
Cc1ccc(C(=O)Nc2sc3c(c2C(=O)O)CCCC3)o1	60.5	27.2	/	-34.0
CCN1c2ccccc2NC2=C(C(=O)CC(C)(C)C2)C1c1ccccc1 (configuration not stated)	96.2	99.5	105.5&100.6	5.5
Cc1ccccc1OC(=O)CSc1nnc(-c2ccc(F)cc2)o1	105.5	87.4	101.3	-3.9
Cc1sc2ncc(C(=O)NCCO)c(=O)n2c1C	/	/	107.3	-26.8
COc1ccc(-c2nnc(SC3CCOC3=O)n2-c2ccccc2)cc1 (configuration not stated)	104.0	98.4	/	8.6
N#CCSc1nc2c(cc1C#N)CCCCC2	68.8	72.6	103.6	-17.6
COc1ccc2cc3c(NC(=O)Cc4cccc(C(F)(F)F)c4)n[nH]c3nc2c1	93.0	81.2	103.3	/
COc1ccc(-c2nnc(Nc3cccc(C(F)(F)F)c3)c3ccccc23)cc1	98.8	93.5	103.1	/
Cc1cc(C)cc(NC(=O)COC(=O)C2CCN(c3ccc(C(F)(F)F)cn3)CC2)c1	98.7	97.8	/	-16.2
Cn1c(CSc2nc3ncnc(N)c3[nH]2)nc2ccccc21	81.8	85.0	103.3	-13.2
CC(C)(C)OC(=O)N1CCC(c2c(C(=O)Nc3cccc(C(F)(F)F)c3)cnn2-c2ccc(F)cc2F)CC1	78.1	96.3	110.2	/

Screening data (PubChem)
